Autofluor counter: counter-screen for toxin protease inhibitors: compound fluorescence | actives 3.1% (n = 360,000) | AID 624483 | compound autofluorescence counterscreen, microsphere flow cytometry; active compounds read high | fluorescence intensity (concentration not given with the values);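 active = at least 3 SD above the mean of all compounds, about 16000 in these data; inconclusive = too few beads counted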;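 also: 100 nL of 1 mM stock went into each well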
BJeLR lethal: BJeLR cell viability loss. BJeLR (HRASV12) viability, CellTiter-Glo ATP luminescence, 48 h; reference of the scale not given here. inhibition, % (concentration not given with the values). actives 0.17% (n = 300,000);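 active = replicate mean above 50%; inconclusive = above 50% but judged a plate artefact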;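 also: 50 nL library stock added to about 25 µL; numbers are from one replicate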
Mtb hypoxia inh: inhibitors of hypoxia-regulated fluorescent reporter in Mycobacterium tuberculosis | M. tuberculosis hypoxia-regulated fluorescent reporter, fluorescence | fluorescence inhibition, % (no concentration beside the values) | actives 0.1% (n = 300,000) | AID 1159583;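 active = 35 to 45% if threefold the growth effect, above 45% if 1.5-fold the growth effect; inactive = the rest, general growth blockers included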;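 also: wells of about 50 µL received 100 nL stock; 0% = vehicle wells and 100% = reference inhibitor wells; whole bacteria with a GFP reporter of the hypoxia response; strong numbers were not always called active; many hits fall short of the cut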
PrP 5UTR inh: suppresses PrP 5' UTR mRNA reporter expression. cell-based PrP 5' UTR mRNA reporter, plate reader. AID 488862. actives 0.35% (n = 340,000). inhibition, % (test concentration not listed);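 active = every replicate at 50% or more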;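 also: 0 = median of the neutral control wells; tested in H4 reporter cells; numbers are from one replicate; inactives centre near -14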
RN4220 kill: kills Staphylococcus aureus RN4220; inhibition, % (concentration not given with the values); S. aureus RN4220 growth, OD600, 16 h; actives 0.33% (n = 330,000); AID 1259311;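 active = z-score of -3 or lower and OD600 up to 0.18 on both plates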;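 also: plate controls were untreated cells for no effect and reference antibiotic for full effect; stock transfer was 100 nL into about 80 µL; one replicate is shown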
Sa ugtP lethal: compounds lethal to S. aureus RN4220 ugtP deletion mutant | OD600 growth, 16 h; some inactives read as strong as hits | growth inhibition, % (test concentration not listed) | actives 0.54% (n = 330,000) | AID 1259309;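 active = z-score under -3 and OD600 up to 0.15 on both plates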;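 also: plate controls were untreated wells for no effect and antibiotic for full effect; wells of about 80 µL received 100 nL stock; the first replicate is given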
Mtb hypoxia inh growth: further read-out of Mtb hypoxia inh, marked with its call; growth inhibition, %; measured here: M. tuberculosis growth (absorbance);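 0% = vehicle and 100% = reference antibiotic; read after six days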
An asterisk follows results filed as active; ? = inconclusive; . = no result given. Random draw from the library. Share with any hit: about 3.9%.

Below each SMILES – Autofluor counter	BJeLR lethal	Mtb hypoxia inh	Mtb hypoxia inh growth	PrP 5UTR inh	RN4220 kill	Sa ugtP lethal
COC(=O)c1sccc1NC(=O)c1c(-c2ccccc2)noc1C
  2376	14	4	7	-21	2.8	3
CC(=O)n1c2ccccc2c2c1c1ccccc1n2C
  4806	5	.	.	-17	0.9	-2
O=C(c1ccc2ccccc2c1)C1CCCN(C(=O)CN2C(=O)CSC2=O)C1 (stereo unspecified)
  3258	17	8	5	-34	-2.1	8
Cc1cccc(N2CCN(C(=O)c3cccc(N4C(=O)C5C6C=CC(C6)C5C4=O)c3)CC2)c1C (stereo unspecified)
  5593	0	4	6	-11	-3.6	5
Cc1ccc(N/C=C/C(=O)c2ccco2)c(O)c1
  4459	-3	-2	-5	-76	4.4	8
CC(=O)Nc1cccc(/C(C)=N/NS(=O)(=O)c2ccccc2)c1
  4447	5	.	.	-22	.	.
N/C(=N\OC(=O)c1cccc2ccccc12)c1ccncc1
  4570	-3	1	11	-48	2.7	-2
CC1=C(C(=O)O)N2C(=O)C(NC(=O)c3ccc(F)cc3)C2SC1 (stereo unspecified)
  ?	.	0	3	4	18	29
CCC(=O)N1CCN(c2ccc(NC(=O)c3ccc(C#N)cc3F)cc2Cl)CC1
  4265	10	-5	8	-10	-1.3	-2
CC(O)(Cc1ccccn1)Cc1ccccn1
  4317	.	11	8	-25	5.0	-2
COC(=O)c1[nH]c2ccccc2c1NC(=O)C(C)N1CCN(C(=O)c2ccco2)CC1 (stereo unspecified)
  2977	4	.	.	-31	-0.5	-3
O=C(CN1C(=O)NC2(CCCCCC2)C1=O)c1ccc(OC(F)F)cc1OC(F)F
  5779	8	14	1	-8	6.5	9
CCCCN1C(=S)SC(C)(C)C1/[N+]([O-])=C/c1ccc(S(=O)(=O)NC)cc1 (stereo unspecified)
  5286	1	1	-5	-18	1.5	-7
Cc1noc2ncc(C(=O)c3cc(F)ccc3O)cc12
  2222	-9	.	.	-20	1.0	5
CN=C1SC(CC(=O)Nc2c(C)cccc2C)C(=O)N1/N=C/c1cccs1 (stereo unspecified)
  2584	-18	.	.	-8	.	.
COc1ccc(NC(=O)CC(C)=NNC(=O)c2ccccn2)c(OC)c1
  .	.	11	6	.	1.7	0
O=C(CSc1ncn[nH]1)N1N=C(c2ccc(Cl)cc2)CC1c1ccco1 (stereo unspecified)
  4472	-1	13	0	-2	6.4	-12
CSc1nc(Oc2ccc(=O)[nH]n2)nc(N(C)C)n1
  4536	10	-5	5	-8	6.7	7
CCCCNC(=O)CCn1c(=S)[nH]c2cc3c(cc2c1=O)OCO3
  10493	-6	7	2	-18	2.7	5
O=c1[nH]c2ccc(S(=O)(=O)N3CCCC3)cc2[nH]1
  4074	0	1	-6	-18	1.5	8
CCC1CCCCN1C1Sc2ccc(C(=O)OC)cc2NC1=O (stereo unspecified)
  11266	-2	-1	-3	-3	7.3	5
COc1ccc(C(=O)OCC(=O)N(C)C2CCS(=O)(=O)C2)cc1S(=O)(=O)N1CCCc2ccccc21 (stereo unspecified)
  4695	0	-5	1	-17	-0.3	-1
O=C1COc2ccc(C(=O)CSc3nnc(Cc4cccs4)n3-c3ccccc3)cc2N1
  2958	-5	-54	35	-17	5.5	-10
FC(F)(F)c1cc(Cl)c2nc(-c3ccccc3)cn2c1
  2632	-8	.	.	-117	0.5	1
O=C(N/N=C/c1ccc(Cl)cc1)c1sccc1OCc1ccc(F)cc1
  3418	34	.	.	24	.	.
O=C(NCC1COc2ccccc2O1)c1cc(S(=O)(=O)N2CCOCC2)c(Cl)cc1Cl (stereo unspecified)
  ?	.	4	-5	7	0.2	2
O=C(C(=O)N1CCN(C(=O)c2ccco2)CC1)c1c[nH]c2ccccc12
  2556	-1	17	5	-11	4.9	8
CCOc1ccccc1N1CCN(CC(=O)c2c(N)n(C)c(=O)n(C)c2=O)CC1
  2405	-5	6	3	-7	2.5	5
CCCCCCCCCCCCCCCCn1cc[n+](CC(C)=O)c1
  3894	.	15	14	-3	100*	101*
Cc1cccc(C)c1N1CCN(c2nc(N(C)C)oc(=O)c2C#N)CC1
  23077*	-4	16	14	-3	3.5	0
CCOC(=O)c1c(NC(=O)COC(=O)c2ccc(Cl)nc2)sc(C(=O)N(C)C)c1C
  6342	-13	5	-2	-9	3.8	3
CCCCOP(=O)(c1ccc(N(C)C)cc1)C(O)c1cccnc1 (stereo unspecified)
  5479	-6	17	9	-30	3.8	6
Cc1ccc(C(=O)Nc2nc(-c3ccco3)c(-c3ccco3)s2)o1
  ?	.	0	2	-15	3.9	-11
Cc1cnc(C(=O)Nc2ccc(S(=O)(=O)NCC(C)C)cc2)cn1
  4629	1	1	5	-7	1.9	9
Cc1cc(N2CCCC2)nc2ccccc12
  3315	-1	.	.	9	3.4	4
COc1ccc(C2C(C#N)=C(N)Oc3n[nH]c(C)c32)cc1CSc1ccccn1 (stereo unspecified)
  4629	19	4	7	-1	3.7	-11
O=C(NN=Cc1ccco1)Nc1cccc(Cl)c1
  .	.	4	1	.	-0.6	-22
Cc1ccc(S(=O)(=O)n2nc(C)c(S(=O)(=O)N3CCOCC3)c2C)cc1
  4891	7	6	3	-4	2.5	2
O=C1NCCSC1c1ccccc1 (stereo unspecified)
  4454	-1	9	-2	-26	3.7	0
Cc1cccc(C(C)C)c1NC(=O)c1ccc(OCC2CCCO2)cc1 (stereo unspecified)
  2883	.	12	8	-20	1.8	1
Cc1ccc(O)c(NC(=O)c2cccc(S(=O)(=O)N3CCCCC3)c2)c1
  4591	8	.	.	-20	2.3	-3
COCCn1nnnc1C(c1ccccc1OC)N1CCN(c2ccccc2F)CC1 (stereo unspecified)
  5000	5	.	.	-15	-1.4	-4
C/C(=N/NC(=O)CNC(=O)c1cccs1)c1ccco1
  6115	-6	.	.	-8	.	.
CC(=O)N1N=C(c2ccc(C)cc2)OC1c1ccc(C(C)C)cc1 (stereo unspecified)
  9311	-8	0	10	-67	6.2	11
CC(=O)Nc1sc2c(c1C(c1ccc(F)cc1)N1CCOCC1)CCCC2 (stereo unspecified)
  3015	-11	3	11	7	-0.4	-4
Cc1ccc2c(c1)nnn2C1CCN(S(=O)(=O)c2ccc(C(=O)N3C(C)CCCC3C)cc2)CC1 (stereo unspecified)
  3708	4	3	3	-17	-1.1	-4
COc1ccc(OCCNC(=O)CCCO)cc1
  .	0	-8	-1	-5	-0.7	0
Cc1nc2sccn2c1P(c1c(C)nc2sccn12)c1c(C)nc2sccn12
  4517	-5	-9	11	-20	6.9	-5
COc1ccc(S(=O)(=O)N2CCN(CC(=O)Nc3ccc(C)c(F)c3)CC2)cc1
  2303	-1	.	.	5	13	13
O=C(COC(=O)c1ccc(S(=O)(=O)N2CCOCC2)cc1)NC1CCCCCCC1
  2218	-1	3	3	-78	0.2	4
CN(CCO)C(=O)C1CCN(c2ncc(C(F)(F)F)cc2Cl)CC1
  3637	2	-6	4	-34	0.0	1
Cc1c(C)n(C)c2ccc(C(=O)NCCCN3CCN(c4ccc(F)cc4)CC3)cc12
  5206	4	12	3	-11	-0.6	5
O=C(NCc1ccccc1)c1noc2c1CCCC2
  5510	9	8	7	.	-0.4	-3
Cc1ccc(Cl)cc1NC(=S)NCCCSC1CCCCC1
  4024	-1	7	-6	-30	-4.7	-18
Cc1ccc(S(=O)(=O)N2CCOCC2)cc1NC(=O)COC(=O)CCOc1ccc(C(C)(C)C)cc1
  ?	-11	1	11	-10	1.9	-2
COc1ccc(N2C(=O)/C(=C/c3ccc([N+](=O)[O-])cc3)N=C2C)c(OC)c1
  4913	5	.	.	-15	.	.
C(=N\n1cnc2ccccc21)/c1cccnc1
  22275*	9	.	.	-5	.	.
O=[N+]([O-])c1ccc(Cl)c(S(=O)(=O)N2CCCCCC2)c1
  2215	1	0	10	-33	9.3	2
COc1ccc([C@H]2CC(=O)C=C(c3cccc(OC)c3)C2)cc1
  4193	.	0	12	-6	-10.0	-8
CCOc1cc(C2c3c(n[nH]c3C)C(=O)N2c2ccc(Br)cc2)ccc1O (stereo unspecified)
  3428	-5	.	.	5	7.3	2

Compounds shown so far containing a nitro group on carbon, in the order listed:
Below each SMILES – Autofluor counter	BJeLR lethal	Mtb hypoxia inh	Mtb hypoxia inh growth	PrP 5UTR inh	RN4220 kill	Sa ugtP lethal
COc1ccc(N2C(=O)/C(=C/c3ccc([N+](=O)[O-])cc3)N=C2C)c(OC)c1
  4913	5	.	.	-15	.	.
O=[N+]([O-])c1ccc(Cl)c(S(=O)(=O)N2CCCCCC2)c1
  2215	1	0	10	-33	9.3	2

New compounds follow:
Below each SMILES – Autofluor counter	BJeLR lethal	Mtb hypoxia inh	Mtb hypoxia inh growth	PrP 5UTR inh	RN4220 kill	Sa ugtP lethal
CN1CCc2c(sc3c2C(=O)NC(c2cccs2)N3)C1 (stereo unspecified)
  6770	1	1	7	-20	4.1	12
Cn1ncc(C#N)c1/N=C/N1CCCCC1
  3255	9	.	.	6	.	.
CC(OC(=O)c1ccc2c(=O)n3c(nc2c1)CCCCC3)C(=O)Nc1ccc(Cl)cn1 (stereo unspecified)
  2342	2	13	8	-10	3.6	-4
CC(=O)c1ccc(NC(=S)NC(=O)c2c(Cl)c(C)nn2C)cc1
  8334	8	18	2	-29	17	4
Cc1ccc(NC(=O)CCS(=O)(=O)c2cc3c(cc2Cl)NC(=O)CO3)cc1
  6571	-5	2	2	-13	1.4	2
Cc1nc2sccn2c(=O)c1S(=O)(=O)N1CCN(c2ccccc2)CC1
  5575	-6	8	12	3	-10	-2
Cn1c(C(=O)NCCCN2CCCCCC2)cc2c(=O)n(C)c3ccccc3c21
  6900	.	.	.	-8	-0.4	7
O=C(CNC(=O)c1ccco1)NCc1nc2ccccc2[nH]1
  5416	-4	-6	-7	-13	4.4	12
O=C(Nc1cc(S(=O)(=O)N2CCOCC2)ccc1Cl)c1cc(=O)c2ccccc2o1
  5107	4	15	5	0	6.6	3
CC(C)C(=O)Nc1nnc(NC(=S)Nc2ccccc2)s1
  4483	-5	5	1	-41	0.2	-5
COc1ccc(NC2=NC(=S)N(c3cccc(C)c3)C23CCCCC3)cc1
  3705	-5	3	2	-6	-0.6	-7
O=C(Cn1ncc2c3ccccc3n(Cc3ccc(Cl)cc3)c2c1=O)NCCCN1CCCC1=O
  4069	-10	9	-1	-20	4.1	4
COc1ccc(OC)c(NC(=O)C2CCCN(S(=O)(=O)c3c(C)nn(C)c3C)C2)c1 (stereo unspecified)
  6675	14	.	.	-13	0.1	13
CC(C)NC(=O)c1ccccc1NC(=O)C1CC(=O)N(C(C)C)C1 (stereo unspecified)
  3586	-16	2	2	-23	0.6	2
CCOC(=O)c1cnc2cc(F)c(F)cc2c1N1CCN(C)CC1
  4288	6	.	.	-13	.	.
CCN(CC(=O)NCCCn1ccnc1)S(=O)(=O)c1ccc(C)cc1
  5663	-2	-2	6	4	0.0	13
CCOCCOC(=O)c1ccc(-n2cncn2)nc1
  3606	8	.	.	-12	1.4	16
COc1ccc(CC(=O)N2C[C@H]3C[C@@H](C2)c2cccc(=O)n2C3)cc1
  4864	-7	.	.	9	-0.1	-2
COC(=O)c1cccc(NC(=O)CSc2nncn2-c2ccccn2)c1
  5890	0	-2	5	-4	3.5	3
Cc1ccc(-c2cc(C(=O)N/N=C/C(Br)=C/c3ccccc3)n[nH]2)o1
  3650	4	.	.	-15	.	.
N/C(=N\OC(=O)Cc1ccccc1)c1ccc(Br)cc1
  2138	6	5	10	-27	2.6	14
CCCC(C)NC(=O)Cc1ccccc1[N+](=O)[O-] (stereo unspecified)
  2477	5	8	8	-14	2.7	-2

3 structures from above, sorted by length of the SMILES, lowest first:
Below each SMILES – Autofluor counter	BJeLR lethal	Mtb hypoxia inh	Mtb hypoxia inh growth	PrP 5UTR inh	RN4220 kill	Sa ugtP lethal
O=C1NCCSC1c1ccccc1 (stereo unspecified)
  4454	-1	9	-2	-26	3.7	0
CC(=O)Nc1sc2c(c1C(c1ccc(F)cc1)N1CCOCC1)CCCC2 (stereo unspecified)
  3015	-11	3	11	7	-0.4	-4
Cn1c(C(=O)NCCCN2CCCCCC2)cc2c(=O)n(C)c3ccccc3c21
  6900	.	.	.	-8	-0.4	7
